Bioassay records from PubChem.
PrP UTR inh: inhibition of PrP 5' UTR reporter expression | cell-based PrP 5' UTR mRNA reporter, plate reader | inhibition, % (test concentration not listed) | 340,000 compounds, 0.35% hits | AID 488862;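 active = every replicate at 50% or more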;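 note: 0 = median of the neutral control wells; tested in H4 reporter cells; numbers are from one replicate; inactives centre near -14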
RN4220 kill: kills Staphylococcus aureus RN4220; S. aureus RN4220 growth, OD600, 16 h; inhibition, % (no concentration beside the values); 330,000 compounds, 0.33% hits;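 active = z-score of -3 or lower and OD600 up to 0.18 on both plates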;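 note: plate controls were untreated cells for no effect and reference antibiotic for full effect; stock transfer was 100 nL into about 80 µL; one replicate is shown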
Autofluor counter: flagged as autofluorescent in microsphere protease counterscreen | compound autofluorescence counterscreen, microsphere flow cytometry; stronger effect = higher value | fluorescence intensity (no concentration beside the values) | 360,000 compounds, 3.1% hits | AID 624483;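 active = at least 3 SD above the mean of all compounds, about 16000 in these data; inconclusive = too few beads counted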;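 note: 100 nL of 1 mM stock went into each well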
BJeLR lethal: kills HRASV12-expressing BJeLR cells. 300,000 compounds, 0.17% hits. inhibition, % (concentration not given with the values). BJeLR (HRASV12) viability, CellTiter-Glo ATP luminescence, 48 h; reference of the scale not given here;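 active = replicate mean above 50%; inconclusive = above 50% but judged a plate artefact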;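 note: 50 nL library stock added to about 25 µL; numbers are from one replicate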
Mtb hypoxia inh: Mtb hypoxia fluorescent reporter inhibition. M. tuberculosis hypoxia-regulated fluorescent reporter, fluorescence. fluorescence inhibition, % (concentration not given with the values). 300,000 compounds, 0.1% hits. AID 1159583;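 active = 35 to 45% if threefold the growth effect, above 45% if 1.5-fold the growth effect; inactive = the rest, general growth blockers included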;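 note: wells of about 50 µL received 100 nL stock; 0% = vehicle wells and 100% = reference inhibitor wells; whole bacteria with a GFP reporter of the hypoxia response; strong numbers were not always called active; many hits fall short of the cut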
ugtP null kill: growth inhibition of S. aureus ugtP deletion strain. 330,000 compounds, 0.54% hits. S. aureus RN4220 ugtP deletion, OD600 growth, 16 h; some inactives read as strong as hits. AID 1259309. growth inhibition, % (test concentration not listed);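 active = z-score under -3 and OD600 up to 0.15 on both plates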;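 note: plate controls were untreated wells for no effect and antibiotic for full effect; wells of about 80 µL received 100 nL stock; the first replicate is given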
Mtb hypoxia inh growth: second read-out of Mtb hypoxia inh, no call of its own (marks repeat the call); growth inhibition, %; measured here: M. tuberculosis growth (absorbance);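 0% = vehicle and 100% = reference antibiotic; read after six days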
The depositor's hits bear a star; ? = inconclusive; . = not tested or not shown.

SMILES	PrP UTR inh	RN4220 kill	Autofluor counter	BJeLR lethal	Mtb hypoxia inh	Mtb hypoxia inh growth	ugtP null kill
Cc1ccc(C)c(N2CCN(CC(=O)Nc3ccc([N+](=O)[O-])cc3C(=O)Nc3ccccc3F)CC2)c1	-40	-0.4	11982	-1	-1	19	-8
O=C(NCCN1CCN(C(=O)c2cccc([N+](=O)[O-])c2)CC1)C(=O)NCc1ccc(Cl)cc1	-9	1.3	5570	-9	4	-7	4
Cc1c(C=NNC(=O)c2ccc(F)cc2)cnn1C	.	1.7	.	.	3	2	8
NS(=O)(=O)c1ccc(CCNC(=O)COC(=O)CCSc2ccc(Cl)cc2)cc1	-19	10	9905	17	11	0	15
Fc1ccccc1OCC1CCCN(Cc2nc(CC3CC3)no2)C1 (stereo unspecified)	-18	2.7	4110	2	-1	5	8
CCCCNC(=O)C(=O)Nc1cc2c3c(c1)CCC(=O)N3CCC2	7	1.5	4503	-11	6	1	8
Cc1onc(-c2ccccc2)c1C(=O)Nc1nc(-c2ccccc2)cs1	-25	3.2	3756	6	.	.	-11
Cc1ccc(C)c(NC(=S)N(C2CCCCC2)C(C)c2cccnc2)c1 (stereo unspecified)	5	2.7	5482	5	12	7	3
COc1cccc(-c2nnc(NC(=O)c3ccco3)s2)c1	-32	5.9	4319	-1	-4	-9	-6
Cc1cc(C)cc(N2CC(O)=C(c3nc4ccccc4c(=O)[nH]3)C2=N)c1	-6	2.3	2215	4	-2	10	1
O=C(CNC(=O)c1ccc(Cl)c([N+](=O)[O-])c1)OCN1C(=O)c2ccccc2C1=O	-8	7.7	5195	-2	9	-3	1
Cc1ccc2nsnc2c1NC(=O)c1sc2ccccc2c1Cl	-4	18	2490	-11	-5	8	-6
O=C(c1cccn(Cc2ccc(Cl)c(Cl)c2)c1=O)N1CCOCC1	-33	2.6	9474	2	6	9	6
O=C(CCCN1C(=O)/C(=C\c2cccc(Br)c2)SC1=S)Nc1cccnc1	-25	-2.6	2519	-5	9	11	-14
CCC1Nc2ncnc(N3CCOCC3)c2N(Cc2ccc(OC)cc2)C1=O (stereo unspecified)	-8	0.3	4204	.	-3	8	-3
CC(=O)Nc1ccc(S(=O)(=O)NCC(=O)OCC(=O)Nc2sccc2C(N)=O)cc1	-25	3.6	8506	.	-7	3	-1
CC1CCN(c2ccc(-c3ccc(NC(=O)C(F)(F)F)cc3)nn2)CC1	49	2.7	5713	1	6	9	6
COc1ccc(NC(=O)CSCC(=O)N(C)CC(=O)Nc2c(C)cccc2C)cc1	-14	4.4	3968	.	12	3	2
C=CCc1ccc(OCc2ccc(C(=O)O)o2)c(OC)c1	-30	-3.7	3692	0	5	-1	0
C=CCOC(=O)C1=C[C@@H](c2ccc(Br)cc2)C[C@@H](OCCCCO)O1	-19	.	4315	0	.	.	.
CCOC(=O)CCCCCC(=O)Nc1ccc2c(c1)CC(=O)N([C@@H](C)CO)C[C@@H](C)[C@@H](CN(C)C(=O)Nc1ccc(C(F)(F)F)cc1)O2	-4	-13	2789	.	-11	4	-16
Cc1nc(-c2cccc(Cl)c2)n[nH]1	-25	2.2	5930	-11	-2	-3	-1
O=C(NCCC1=CCCCC1)N[C@@H](Cc1ccccc1)C(=O)O	-10	-5.0	3287	2	-2	8	-8
CCOC(=O)C1CCCN(C(=O)c2ccc(Cl)cc2)C1 (stereo unspecified)	-20	6.5	4014	24	-4	-1	6
CCc1onc(C)c1C(=O)Nc1ccc(N2CCOCC2)cc1	-11	-1.7	3525	.	-13	0	-4
COC(C/C=C/C(=O)[C@H](C)OCc1ccccc1)OC	-4	.	4072	-6	.	.	.
CCN(CC)S(=O)(=O)c1ccc(S(=O)(=O)NCC2CCCO2)cc1 (stereo unspecified)	-5	3.3	4157	3	-3	-15	3
O=C(Nc1cccc(Cl)c1)OC1CN2CCC1CC2 (stereo unspecified)	-28	-0.6	3956	0	-15	-8	-18
CC1=CC(C)C2(COC(=O)Nc3ccccc3)COC(C)C1C2C (stereo unspecified)	4	5.1	2649	2	-4	-5	1
Cn1cccc1/C=C1\SC(=S)N(NC(=O)c2ccccc2)C1=O	-14	1.6	2762	.	-2	4	-12
N#CC(C#N)=C1C(=O)N(CCN2CCOCC2)c2ccccc21	-16	17	3359	3	3	3	-6
COc1ccc(CCNc2cc(C)nc3c(-c4ccc(Cl)cc4)cnn23)cc1OC	-12	-11	2151	-2	11	3	2
CCNC(=O)COC(=O)c1cccc(Br)c1	-16	0.5	4035	9	6	-5	1
COc1ccc(CN(C)C(=O)CCl)cc1	6	4.9	5000	.	.	.	-3
CC(C)COc1ccc(-c2cc(C(=O)NN)[nH]n2)cc1	-22	1.2	2002	-1	12	8	-8
CCOC(=O)C1(CCOc2ccccc2)CCN(Cc2cccc3c2OCO3)CC1	-29	5.1	4772	0	7	21	1
COc1cc(S(=O)(=O)Nc2ccc(C)cc2)ccc1N=Cc1c(C)c(C#N)c(=O)n(C)c1O	-25	.	4407	-10	.	.	.
COCCn1c(C)nc2oc3ccc(Br)cc3c(=O)c2c1=O	-25	3.8	4404	-7	15	8	-4
Nn1cnnc1N/N=C/c1ccc(F)cc1	-19	.	3974	11	.	.	.
O=C(NC1=NC2CCCCC2N1)c1ccccc1 (stereo unspecified)	12	0.9	4651	.	.	.	2

Taken from above.
N#CC(C#N)=C1C(=O)N(CCN2CCOCC2)c2ccccc21 @ RN4220 kill = 17
Cn1cccc1/C=C1\SC(=S)N(NC(=O)c2ccccc2)C1=O @ RN4220 kill = 1.6

New compounds follow
SMILES	PrP UTR inh	RN4220 kill	Autofluor counter	BJeLR lethal	Mtb hypoxia inh	Mtb hypoxia inh growth	ugtP null kill
Cc1ccc(S(=O)(=O)c2nnn3c2nc(N2CCC(C(N)=O)CC2)c2ccccc23)cc1C	-9	0.8	5275	2	-3	-7	8
Cc1ccc(C(=O)N/C(=C/c2ccco2)C(=O)N2CCCCCC2)cc1	11	3.6	3959	-11	1	5	9
O=C(OCc1ccc2c(c1)OCO2)c1ccc(S(=O)(=O)N2CCCCC2)cc1	-11	-12	2982	-9	13	10	-8
O=C(OC1C(Oc2ccccc2COC(=O)C2(O)C=CCCC2=O)OC(CO)C(O)C1O)c1ccccc1 (stereo unspecified)	.	8.9	.	.	-1	-1	-3
Cc1cc(C(F)(F)F)n(-c2nc(C(=O)NNS(=O)(=O)c3ccccc3[N+](=O)[O-])cs2)n1	-18	17	4534	-2	-2	8	-7
CC(C)=CC(=O)OCc1csc(CC(=O)Nc2ccccc2C)n1	-6	2.0	5638	-1	-8	2	3
COc1ccc(NC(=O)Cn2c(=O)n(-c3ccc(OC)cc3OC)c(=O)c3c(C)c(C)sc32)cc1	-16	5.6	2607	11	8	4	5
CN1CCN(C(=O)C2=C[C@@H](c3ccc(C(F)(F)F)cc3)C[C@@H](OCc3ccc(CO)cc3)O2)CC1	-19	.	3948	-1	.	.	.
Cc1ccc(-c2nnc(SCC(=O)Nc3cccc(C(=O)N4CCOCC4)c3)n2C)cc1	5	7.9	2582	2	2	7	4
CC(CC(=O)N1CCN(c2ccccc2)CC1)c1ccccc1 (stereo unspecified)	-24	1.9	1925	1	2	3	2
Cc1ccc([N+](=O)[O-])cc1NC(=S)NCCc1ccccc1	0	6.1	?	4	0	-3	11
CCOc1cc(/C=N/NC(=O)c2ccncc2)ccc1OC(=O)c1ccco1	-3	.	5838	-3	.	.	.
CC(C)CC(c1nnnn1CC1CCCO1)N1CCN(c2cccc(Cl)c2)CC1 (stereo unspecified)	-1	0.8	2692	4	.	.	8
COc1cccc(CNC(=O)CCC2CCCN(C3CCOCC3)C2)c1 (stereo unspecified)	-17	0.6	4787	-1	6	-13	3
CS(=O)(=O)N(C(=O)NC(=O)NC12CC3CC(CC(C3)C1)C2)C1CCCCC1	-18	5.0	3323	5	-3	-2	10
CCOc1cc(C(=O)NC(C)CC)cc(OCC)c1OCC (stereo unspecified)	-14	0.6	2710	-3	.	.	2
O=C(C1CCN(S(=O)(=O)N2CCOCC2)CC1)N1CCN(c2ccccc2F)CC1	-2	-0.6	4364	1	-1	11	-2
COc1ccccc1S(=O)(=O)Cc1ccc(C(=O)NCc2ccccc2)o1	-19	5.9	4999	6	18	9	2
CC(C)c1ccc(N=C2NN=C(c3cccs3)CS2)cc1	-119	5.6	3281	0	15	6	15
O=C(c1cccc(Oc2ccccc2)c1)N1CCN(c2ccccn2)CC1	-14	2.7	1987	-1	12	4	7
Cc1cccc(C)c1OCC(O)Cn1c2ccccc2c2ccccc21 (stereo unspecified)	-12	20	9035	2	14	4	-19
O=C(COC(=O)CCCSc1nc2ccccc2[nH]1)Nc1ccc(Cl)cc1	-19	-1.8	2031	-4	7	7	-6
COc1ccc(/C=N/NC(=O)c2ccncc2)cc1CSc1nc2ccccc2s1	-10	.	10272	-5	.	.	.
Cc1ccccc1COc1cccc(C=NNC(=O)c2nnn(-c3nonc3N)c2C)c1	.	7.1	.	.	0	1	1
S=c1[nH]nc(C2CCCCC2)n1N=Cc1c(Cl)cccc1Cl	.	-2.0	.	.	0	-8	6
CC(C)CCN1CCN(Cc2ccsc2)CC1CCO (stereo unspecified)	5	-0.1	4541	4	4	10	3
Oc1cccc2ccc[n+](CC(O)Cn3c4ccccc4c4ccccc43)c12 (stereo unspecified)	-15	-1.2	1949	0	2	16	-7
O=C(COC(=O)c1ccccc1C(=O)c1ccc(Cl)cc1)NCc1ccccc1	-18	0.6	2492	-4	5	8	18
CC(=O)c1c(N2CCN(Cc3ccccc3)CC2)nc(=S)n(Cc2ccccc2)c1C	-14	2.0	4562	7	-1	2	4
COc1ccc(C(=O)NCC(c2ccc(F)cc2)N2CCOCC2)cc1S(=O)(=O)N1CCCC1 (stereo unspecified)	-8	2.2	10792	2	3	4	8
COC(=O)c1c(NC(C)=O)sc(C(=O)Nc2ccccc2OC)c1C	-15	-1.3	4031	-15	12	3	7
CCn1cc(CNC(=O)C2CCC(=O)N(CCc3cccc(F)c3)C2)cn1 (stereo unspecified)	-10	2.8	5719	-10	8	-2	1
O=C(Nc1ccc(Cl)cc1)Nn1cnnc1	-3	1.3	3865	-6	16	-5	4
Cc1ccc(C(=O)Nc2cccc(C(=O)NCc3ccccc3)c2)o1	3	2.5	11163	-6	2	6	-4
CC1Cc2ccccc2N1C(=O)Cn1cnc2ccccc2c1=O (stereo unspecified)	-20	-8.5	3198	6	7	6	-1
COc1ccccc1CN(C)C(=O)c1cc(-c2cc(OC)c(OC)c(OC)c2)nc2ccccc12	-26	-3.6	3943	2	18	-1	5
CCOCCCNC(=O)CCC(=O)NNc1nc2ccccc2c2nc(C)nn12	-22	0.6	2488	1	5	12	12
Cc1nn2c(C)c(C(=O)Nc3ccccc3)cnc2c1-c1ccccc1	-14	2.6	3982	0	12	4	9
CCn1c(SCC(=O)N2c3ccccc3CCc3ccccc32)nnc1-c1ccc(OC)cc1	-9	2.1	2428	8	2	-3	8
Cc1nn(-c2ccccc2)c(C)c1C=Nn1cnnc1	.	3.7	.	.	8	-2	3
CCn1cc(C2C3=C(CC(C)(C)CC3=O)N(c3ccc(C)cc3)C3=C2C(=O)CC(C)(C)C3)c(C)n1	-5	-4.9	5909	.	-5	1	-8
Cc1nc(C(=O)Nc2ccc(Cl)cc2)sc1C1(C)CC(c2ccccc2)=NO1 (stereo unspecified)	-9	5.1	3394	-1	1	10	18
Cc1cc(=O)oc2cc3c(cc12)OCCO3	-9	0.8	5050	-8	2	1	-3
CC12COC3(P(=O)(c4ccccc4)c4ccccc4)CC1CCC23CP(=O)(c1ccccc1)c1ccccc1 (stereo unspecified)	-15	-1.1	2486	-4	14	2	-12
CCCCN(C(=O)c1cnccn1)c1c(N)n(CCC)c(=O)[nH]c1=O	-10	-1.0	4095	.	3	2	-1

Some of the entries above in another layout.
canonical_smiles,PrP UTR inh,RN4220 kill,Autofluor counter,BJeLR lethal,Mtb hypoxia inh,Mtb hypoxia inh growth,ugtP null kill
CC12COC3(P(=O)(c4ccccc4)c4ccccc4)CC1CCC23CP(=O)(c1ccccc1)c1ccccc1 (stereo unspecified),-15,-1.1,2486,-4,14,2,-12
Cc1nc(C(=O)Nc2ccc(Cl)cc2)sc1C1(C)CC(c2ccccc2)=NO1 (stereo unspecified),-9,5.1,3394,-1,1,10,18

This is a random part of the collection; about 4% have a hit in one of these screens.
